MARV entry inh: qHTS for Inhibitors of binding or entry into cells for Marburg Virus | 18,000 compounds, 6.5% hits | Potency, µM (doses to about 49.2 µM), without a hit: at the highest dose activity change, negative = inhibition, usual class: inhibitors | Marburg virus pseudotype entry/binding inhibition, cell-based; control for the full effect not named in the record; many of its hits are not listed in these tables; active means well fitted inhibition curve with a large enough effect; inconclusive means small, poorly fitted or top-dose-only effect; inactive means no such curve, though single readings can be large or run the other way; tested in HEK293 cells; note: luciferase read-out
LASV entry inh: qHTS for Inhibitors of binding or entry into cells for Lassa Virus; Lassa virus pseudotyped entry inhibition, cell-based qHTS; control for the full effect not named in the record; many of its hits are not listed in these tables; Potency, µM (series often up to 49.2 µM), without a hit: at the top dose activity change, negative = inhibition, most hits filed as inhibitors; 18,000 compounds, 4.1% hits; AID 720533, 2013; active = well fitted inhibition curve with a large enough effect; inconclusive = small, poorly fitted or top-dose-only effect; inactive = no such curve, though single readings can be large or run the other way; tested in HEK293 cells; note: luciferase read-out
The depositor's hits bear a star; ? = inconclusive; & = joins results of further samples; [ ] = remark or other dose. % is set by controls: 0 for no effect and ±100 for the full control effect; potency is the fitted concentration of half-maximal effect. The list is partial; the hit share may differ from the screen's.

SMILES	MARV entry inh	LASV entry inh
Fc1ccc(C2=NCCC(c3ccccc3)O2)cc1 (configuration not stated)	-10%	4%
CCOC(=O)C1CSCCS(=O)(=O)N1Cc1cccc(F)c1 (configuration not stated)	-23%	-19%
Cc1cc(O)c2ccccc2c1O	2%	?
COC(=O)[C@@H](NC(=O)O[C@@H]1C(=O)c2cc(OC)ccc2O[C@H]1c1cccc(OC)c1)C(C)C	15%	-14%
COc1c2c(nc3ccccc13)O[C@H]([C@@](C)(O)CO)C2	-17%[17.8 µM]	-8%[17.8 µM]
CCN1C(=O)NC(c2ccc(Br)cc2)C(C(=O)OC)=C1C (configuration not stated)	?	4%[8.59 µM]
O=C(NCC1Cc2cc(F)cc(-c3cnccn3)c2O1)c1cccc(Cl)c1 (configuration not stated)	-18%	0%
COc1ccccc1C1OC(=O)CC1C(=O)OC[C@@H]1CCCN2CCCCC12 (some centres not stated)	13%	-1%
Cc1noc(C)c1-c1nc(N2CCNCC2)c2ccccc2n1	?	5%
CCn1c(-c2ccccc2F)nc2cc(NC(C)=O)cc(C(=O)N(C)Cc3ccccn3)c21	-6%	-5%
COc1c(OC)c2occc2c2oc(=O)ccc12	-1%	-6%
COc1cc2c(cc1OC)-c1c(OC)c(OC)cc3ccnc(c13)C2=O	?	?
CC(=O)OC1CC2C(C)(C)C(O)CCC2(C)C2CC[C@]3(C)C(=CC(=O)OC3c3ccoc3)C12C (some centres not stated)	-25%	-15%
c1cnc(N2CCN(Cc3ccc4c(c3)OCO4)CC2)nc1	4%	4%
C[C@@H]1CCN(C(=O)[C@H](CCCN=C(N)N)NS(=O)(=O)c2cccc3c2NC[C@H](C)C3)[C@@H](C(=O)O)C1	17%	-10%
COc1cc(C2c3cc4c(c(O)c3CC3COC(=O)C32)OCO4)cc(OC)c1OC (configuration not stated)	?	?
CC(C)O	8%	-7%
Cc1cc(C)n(-c2cccc(C(=O)NCC3Cc4cccc(-c5ccccn5)c4O3)c2)n1 (configuration not stated)	-3%	-1%
O=S1(=O)c2ccc(Br)cc2N2CCC[C@@H]2CN1Cc1ccc(Cl)cc1	?	1%
CC/C=C\C/C=C\C/C=C\C/C=C\C/C=C\C/C=C\CCC(=O)O[C@H](COCCCCCCCCCCCCCCCC)COP(=O)([O-])OCC[N+](C)(C)C	-15%	-17%
C=CCCCCCCCCCCCC(O)CC(O)COC(C)=O (configuration not stated) (tested in a mixture with another compound)	-14%	-8%
COCCN(CCOC)Cc1cc(=O)oc2cc(OC)c(Cl)cc12	21%	-16%
Cc1nnc(C(=O)NC(C)(C)c2nc(C(=O)NCc3ccc(F)cc3)c(O)c(=O)n2C)o1	2%	-10%
Cc1ccccc1C1CC(=O)Oc2cc(C)c(Br)c(C)c21 (configuration not stated)	8%	-13%
O=C(NCCN1Cc2ccccc2OC(c2ccccc2F)C1)c1cncs1 (configuration not stated)	3%	0%

7 of the compounds above, with two lines to a compound.
Each structure is followed by: MARV entry inh, LASV entry inh
- CCOC(=O)C1CSCCS(=O)(=O)N1Cc1cccc(F)c1 (configuration not stated)
→ -23%, -19%
- c1cnc(N2CCN(Cc3ccc4c(c3)OCO4)CC2)nc1
→ 4%, 4%
- Cc1noc(C)c1-c1nc(N2CCNCC2)c2ccccc2n1
→ ?, 5%
- O=C(NCCN1Cc2ccccc2OC(c2ccccc2F)C1)c1cncs1 (configuration not stated)
→ 3%, 0%
- COc1ccccc1C1OC(=O)CC1C(=O)OC[C@@H]1CCCN2CCCCC12 (some centres not stated)
→ 13%, -1%
- Cc1cc(O)c2ccccc2c1O
→ 2%, ?
- COC(=O)[C@@H](NC(=O)O[C@@H]1C(=O)c2cc(OC)ccc2O[C@H]1c1cccc(OC)c1)C(C)C
→ 15%, -14%

Shown as labelled records: entries from further up
> c1cnc(N2CCN(Cc3ccc4c(c3)OCO4)CC2)nc1
  MARV entry inh = 4%	LASV entry inh = 4%
> C[C@@H]1CCN(C(=O)[C@H](CCCN=C(N)N)NS(=O)(=O)c2cccc3c2NC[C@H](C)C3)[C@@H](C(=O)O)C1
  MARV entry inh = 17%	LASV entry inh = -10%

Remaining list, next part:
SMILES	MARV entry inh	LASV entry inh
Cn1ccc2c(C=Cc3ccc(F)cc3)cc3c(c21)C1CCC3O1 (configuration not stated)	-20%	0%
COc1cccc(C(=O)NCC2Cc3c(F)ccc(-c4ncccn4)c3O2)c1OC (configuration not stated)	-2%	-12%
CCCCCCCCCCCCCCCC(=O)N[C@H](CN1CCOCC1)[C@H](O)c1ccccc1	16%&-13%	10%&12%
CC/C=C\C/C=C\C/C=C\C/C=C\C/C=C\C/C=C\CCC(=O)NCCCC(=O)O	-5%	-1%
C[C@]12C=CC(=O)C=C1CC[C@@H]1[C@@H]2C(=O)C[C@@]2(C)[C@H]1CC[C@]2(O)C(=O)CO	17%	-5%
Nc1c(CC(=O)O)cccc1C(=O)c1ccc(Br)cc1	8%	-5%
CC(C)NCC(O)c1ccc([N+](=O)[O-])cc1 (configuration not stated)	-9%	-4%
CC(C)C[C@H]1COc2c(Cl)cccc2S(=O)(=O)N1Cc1cccc(F)c1	-24%	4%
NCCC[C@@H](CC(=O)N[C@@H]1CCNC[C@H]1C(=O)N[C@H](CC(=O)N[C@@H](CCC(=O)O)CC(=O)O)Cc1c[nH]c2ccccc12)NC(=O)C[C@H](CO)NC(=O)[C@@H]1CNCC[C@H]1N	-9%	-8%
Cc1cc2c(c(-c3ccc(Cl)cc3)c1)OC(CNC(=O)Cc1c(C)noc1C)C2 (configuration not stated)	-19%	-16%
N[C@@H](COC(c1cccc(F)c1)c1ccccc1OCc1ccccc1)C(=O)O (some centres not stated)	9%	-13%
COc1cc(OC)c(OC)cc1CN1CCCC(n2cc(C(=O)N3CCCCC3)nn2)C1 (configuration not stated)	0%	35%[activator]
CCCCCCCCCCCCCCCCCCCCCCO	13%&9%	-4%&-1%
CC1(OC(=O)c2ccc(Cl)nc2)C(=O)C=C2C=C(c3ccsc3)OC=C2C1=O (configuration not stated)	-10%	-15%
COc1cccc(CN2CCOc3ccc(C(O)c4cccnc4)cc3C2)c1 (configuration not stated)	-14%	-12%
O=C([C@@H]1C[C@@H](Sc2nc3ccccc3[nH]2)CN1Cc1c(F)cccc1F)N1CCOCC1	?	-2%
COc1cc(-c2ccc(C)cc2)cc2c1OCCN(C(=O)CCn1ccc(C)n1)C2	0%	7%
COC(=O)[C@]1(CC=Cc2ccccc2)C=C[C@@H](C)[C@H](c2ccccc2Br)N1C(=O)C(F)(F)F	13%[8.59 µM]	15%[8.59 µM]
COC(=O)CC1C(C)(C)C(OC(C)=O)C2CC3C4CC(=O)OC(c5ccoc5)[C@]4(C)CCC3[C@@]1(C)C2=O (some centres not stated)	7%	-7%
O=C(O)C1CCN(c2ncnc3ccc(-c4ccccc4C(F)(F)F)cc23)CC1	112µM*	6%
NC1C[C@H]1c1ccccc1 (some centres not stated)	6%	-24%
C[C@@H]1[C@@H](c2ccccc2)Cc2nc3ccccc3nc2C[C@H]1C(=O)N1CCCC1	-15%[8.59 µM]	18%[8.59 µM]
CCN1C(=O)NC(CCc2ccccc2)C(C(C)=O)=C1C (configuration not stated)	-9%[8.59 µM]	-12%[8.59 µM]
O=C1CCCC2CCCCN12 (configuration not stated)	16%[107 µM]	-9%[107 µM]
C[C@H](NC(=O)CNC(=O)[C@@H](NC(=O)[C@H](Cc1ccccc1)NC(=O)CNC(=O)CNC[C@@H](N)Cc1ccccc1)[C@@H](C)O)C(=O)N[C@@H](CCCN=C(N)N)C(=O)N[C@@H](CCCCN)C(=O)N[C@@H](CO)C(=O)N[C@@H](C)C(=O)N[C@@H](CCCN=C(N)N)C(=O)N[C@@H](CCCCN)C(N)=O	1%	2%

Additional entries follow.
SMILES	MARV entry inh	LASV entry inh
COC(=O)CCC(=O)OC1(C)C(=O)C2=COC(c3ccc(OC)cc3)=CC2=C(Br)C1=O (configuration not stated)	2%	-3%
CC(C)=CCn1cnc2c1C(NOCc1ccccc1)=NCN2	-19%	-3%
CCCCCC(=O)N1C[C@@H](n2cc(COC(=O)c3ccccc3)nn2)[C@H](O)C[C@H]1c1ccc(Cl)cc1	?	13%
CCOC(=O)C1=C(C)NC(=S)NC1c1cccc(O)c1 (configuration not stated)	13%&5%&8%	?
CNCC[C@H](Oc1cccc2ccccc12)c1cccs1	7.9µM*	22µM*
CC(=O)OC1CC2C(C)(C)C(O)CC[C@@]2(C)C2CC[C@@]3(C)C(c4ccoc4)OC(=O)C4OC43[C@]12C (some centres not stated)	?	-8%
CCC12C=CCN3CCC4(c5ccc(OC)cc5N(C)C4[C@@](O)(C(=O)OC)C1OC(C)=O)C32 (some centres not stated)	9%	4%
O=C(O)COc1ccccc1	0%	-9%
CCCC1([C@H](O)C/C=C/[C@H]2[C@H](O)CC(=O)[C@@H]2CCCCCCC(=O)OC)CCC1	-2%	?
CCCCCCCC/C=C\C/C=C\C/C=C\CCCC(=O)NCCO	24%&8%	-11%&0%
CCCCCCCCCCCCCCCCOCC(CO)OC(C)=O (configuration not stated)	16%&-4%	8%&-5%
CN1CCCCC1c1cccnc1 (configuration not stated)	13%	4%
COc1ccc2c3c1O[C@H]1C[C@H](O)C=C[C@@]31CCN(C)C2	-4%	4%
CCOC(=O)C1C(C(C)=O)=C(c2ccccc2)c2ccccc2N1S(=O)(=O)C(F)(F)F (configuration not stated)	5%	-15%
CCOC(=O)CN1C(=O)N[C@@H](CCc2ccccc2)[C@H](C(=O)OC)[C@H]1C	-15%[8.59 µM]	-28%[8.59 µM]
C[C@H]1O[C@H](O[C@H]2[C@H](O)[C@@H](O)[C@@H](O)[C@H](O)[C@@H]2O)[C@@H](N)C[C@@H]1NC(=N)C(=O)O	12%	12%
O=P(O)(O)C(Sc1ccc(Cl)cc1)P(=O)(O)O	?	-4%
Oc1cc(-c2cccs2)cc2c1OCCN(Cc1cn[nH]c1-c1ccc(Cl)cc1)C2	6%	-5%
COc1cccc(C(=O)NCC2Cc3cccc(-c4nc(C)cnc4C)c3O2)c1OC (configuration not stated)	?	-13%
CC(=O)NC1C(OC2OC(CC(O)C3OC([N+]4=CCC(=O)NC4=O)C(O)C3O)C(O)C(O)C2NC(=O)/C=C/CCCCCCCCC(C)C)OC(CO)C(O)C1O (configuration not stated)	?	-28%
CC[C@H](C)[C@H](NC(=O)OCC1c2ccccc2-c2ccccc21)C(=O)O	37%[activator]	33%[activator]
O=c1ccn([C@@H]2O[C@H](CO)[C@@H](O)[C@H]2O)c(=O)[nH]1	11%	-6%
COC(=O)N[C@@H](c1cccs1)C(C(C)=O)C(=O)OC (some centres not stated)	-12%[8.59 µM]	-11%[8.59 µM]
COP(=O)(OC)OC=C(Cl)Cl	-5%	?
Cc1cccc(CNc2cc(-c3ccc(N(C)C)cc3)ncn2)c1	36%[activator]	7%

Remaining list, next part:
SMILES	MARV entry inh	LASV entry inh
Cc1c[nH]c(=O)n(CCCN2CCN(c3ccccc3OCC(F)(F)F)CC2)c1=O	23%	3%
CCC(=O)NCCCC[C@H](NC(=O)OCc1ccccc1)C(=O)Nc1ccc2c(C)cc(=O)oc2c1	?	-26%
CC(=O)c1ccc(-c2cc(F)cc3c2OC(CNC(=O)c2ccc[n+]([O-])c2)C3)s1 (configuration not stated)	2%	-15%
CCC(=O)O[C@]1(C(=O)CCl)[C@@H](C)C[C@H]2[C@@H]3C[C@H](F)C4=CC(=O)C=C[C@]4(C)[C@@]3(F)[C@@H](O)C[C@@]21C	?	?
COC(=O)N1C(c2ccccc2)=Cc2ccccc2C1CC(C)=O (configuration not stated)	0%[8.59 µM]	45%[8.59 µM]
CC(=O)OC[C@H]1O[C@H](CC=NO[C@@H](C)c2cc(-c3c(C)cc(C)cc3C)no2)C=C[C@@H]1OC(C)=O	-3%[8.59 µM]	24%[8.59 µM]
COc1cccc(C(=O)N2CCc3c(C(=O)NC(C)c4ccco4)c(OC)cc(=O)n3CC2)c1OC (configuration not stated)	11%	-1%
CCCCC1(C2CCCC2)Cc2cc(OCCCC(=O)O)c(Cl)c(Cl)c2C1=O (configuration not stated)	-13%	?
O=C(Nc1cccc(Cl)c1)OCCN1CCN(Cc2ccccc2)CCC1=O	?	?
CCC(=O)O[C@@](Cc1ccccc1)(c1ccccc1)[C@@H](C)CN(C)C	6%[17.8 µM]	-1%[17.8 µM]
COc1ccc(C(=O)NCC2Cc3cc(C)cc(-c4cc(C(C)=O)ccc4F)c3O2)c(OC)c1OC (configuration not stated)	-22%	0%
CC1=C2[C@H](O)[C@H]([C@@H](C)C(=O)NCCC(C)C)CC[C@@]2(C)C=CC1=O	23%[8.59 µM]	6%[8.59 µM]
COc1ccc([C@H]2C[C@@H](n3cc(COC(=O)c4ccccc4)nn3)[C@H](O)CN2CC2CCCCC2)cc1	?	-17%
NCC1O[C@@H](OC2C(N)C[C@H](N)[C@@H](O[C@H]3OC(CO)C(O)C(N)C3O)C2O)C(O)C(O)C1O (some centres not stated)	1%	-3%
